Vaccinia Venus – qHTS for Stage-Specific Inhibitors of Vaccinia Orthopoxvirus: Venus Reporter Primary qHTS; Vaccinia virus Venus reporter expression, fluorescence; Potency, µM (top dose mostly 36.5 µM), for inactives: at the highest dose activity change, negative = inhibition, most hits filed as inhibitors; 330,000 compounds, 0.46% hits; AID 720580, 2013; active means well fitted inhibition curve with a large enough effect; inconclusive means small, poorly fitted or top-dose-only effect; inactive means no such curve, though single readings can be large or run the other way; tested in A549 cells; further: nearly all actives have a fitted effect of over 30% in size; inactives centre near -10
VACV mCherry inh – qHTS for Stage-Specific Inhibitors of Vaccinia Orthopoxvirus: mCherry Reporter Primary qHTS. AID 720579, 2013. Potency, µM (doses to about 36.5 µM), inactives show at the highest dose activity change, negative = inhibition, usual class: inhibitors. 310,000 compounds, 0.63% hits. Vaccinia virus mCherry reporter infection, fluorescence; about a quarter of the inactives have no number; active = well fitted inhibition curve with a large enough effect; inconclusive = small, poorly fitted or top-dose-only effect; inactive = no such curve, though single readings can be large or run the other way; tested in A549 cells; further: nearly all actives have a fitted effect of over 35% in size; inactives centre near -10
* hit, by the source's call; i = inactive; ? = inconclusive; · = no result given; [ ] = remark or other dose. On the % scale 0 is the no-effect control and ±100 the full control effect; potency means the concentration at half of the fitted maximal effect.

1: O=C(/C=C/[C@H]1O[C@@H](n2cnc3c(NC(=O)c4ccccc4)ncnc32)[C@H](O)[C@@H]1O)NC1CCCCC1
2: CC(c1ccon1)N(C)C(=O)c1ccc(OC2CCN(C(=O)C3CC3)CC2)cc1 (configuration not stated)
3: O=C(O)COc1ccccc1/C=N/NC(=O)c1cc(-c2ccccc2)nc2ccccc12
4: O=C1C=CC(=O)C(CNc2ccc(C(=O)OCc3ccccc3)cc2)=C1
5: CCN(CC)Cc1c(C(=O)N/N=C/c2c(Cl)cccc2Cl)nnn1-c1nonc1N
6: NC(=O)c1oc2ccccc2c1NC(=O)C1CC(=O)N(c2ccccc2)C1 (configuration not stated)
7: CCCCOCCOC(=O)C1OC1(C)c1ccccc1 (configuration not stated)
8: CC(C)(C)Cc1c(C2CCCCC2)nc2ccc(Cl)cn12

| compound no. | 1 | 2 | 3 | 4 | 5 | 6 | 7 | 8 |
| --- | --- | --- | --- | --- | --- | --- | --- | --- |
| Vaccinia Venus | 12.0% | ? | -11.2% | ? | -3.4% | -9.1% | -6.7% | -2.6% |
| VACV mCherry inh | 35.4%[activator] | -24.8% | -14.9% | ? | i | -24.4% | i | 20.6% |

Compound profiles, as listed above:
Profile of O=C(/C=C/[C@H]1O[C@@H](n2cnc3c(NC(=O)c4ccccc4)ncnc32)[C@H](O)[C@@H]1O)NC1CCCCC1 : Vaccinia Venus: 12.0%; VACV mCherry inh: 35.4%[activator]
Profile of CC(c1ccon1)N(C)C(=O)c1ccc(OC2CCN(C(=O)C3CC3)CC2)cc1 (configuration not stated) : Vaccinia Venus: ?; VACV mCherry inh: -24.8%
Profile of CC(C)(C)Cc1c(C2CCCCC2)nc2ccc(Cl)cn12 : Vaccinia Venus: -2.6%; VACV mCherry inh: 20.6%

Later entries
9: CCCC(=O)Nc1c2c(nn1-c1ccc(OC)cc1)CS(=O)C2 (configuration not stated)
10: CC1(C)CC(NC(=O)C2CCN(S(=O)(=O)c3ccc(F)cc3)CC2)CC(C)(C)N1
11: Cc1ccc2cc(CN(C)S(C)(=O)=O)c(=O)[nH]c2c1
12: Cn1ccnc1SCC(=O)NC1(C#N)CCCCC1
13: O=C(CN1C(=O)COc2ccc(Cl)cc21)Nc1ccc(F)cc1
14: CCCC(=O)N(c1ccc(C(=O)O)cc1)c1nc(-c2ccccc2)c(C)s1
15: COc1cccc2cc(-c3csc(NC(=O)CCC(=O)NCCCN4CCC(C)CC4)n3)c(=O)oc12
16: O=C(Cc1ccccc1)c1c[nH]c(C(=O)NC2CCCC2)c1

| compound no. | 9 | 10 | 11 | 12 | 13 | 14 | 15 | 16 |
| --- | --- | --- | --- | --- | --- | --- | --- | --- |
| Vaccinia Venus | -6.9% | -11.7% | -6.8% | -2.7% | -10.0% | -9.7% | 1.1% | -12.5% |
| VACV mCherry inh | -14.1% | -14.8% | -6.0% | -12.3% | -6.1% | 3.2% | ? | i |

Results in sequence from the entries so far.
Compounds 10 to 14 in Vaccinia Venus read -11.7%, -6.8%, -2.7%, -10.0%, -9.7%

(more compounds)
17: Cc1cc(C)c(NC(=O)Cn2nnc(-c3nc(-c4ccccc4)no3)c2N)c(C)c1
18: COc1ccc(C2CC(=O)N3CN(c4ccc(C)c(Cl)c4)CSC3=C2C#N)cc1OC (configuration not stated)
19: Nc1nc(SCC(=O)N2CCOCC2)n[nH]1
20: COc1ccc(/C=C/C(=O)N2CCCc3ccccc32)cc1
21: O=C(Nc1nnc([C@@H]2C[C@H](O)[C@@H](CO)O2)s1)c1ccc(Oc2ccccc2)cc1
22: COCCN(C(=O)COC(=O)Cc1coc2cc(C)ccc12)c1c(N)n(Cc2ccccc2)c(=O)[nH]c1=O
23: COC(=O)c1ccccc1NC(=O)CSc1nc2ncccc2[nH]1
24: COc1ccc2oc(=O)c(-c3cn4c(n3)sc3cc(F)ccc34)cc2c1

| compound no. | 17 | 18 | 19 | 20 | 21 | 22 | 23 | 24 |
| --- | --- | --- | --- | --- | --- | --- | --- | --- |
| Vaccinia Venus | 3.0% | 5.3% | -3.5% | -14.7% | -7.2% | -12.3% | -10.4% | -4.5% |
| VACV mCherry inh | -8.8% | i | -4.0% | i | i | i | -0.5% | -5.3% |

25: CCN(C(=O)c1ccc2c(=O)n3c(nc2c1)CCCCC3)c1cc(OC)ccc1OC
26: CCn1nnnc1Sc1nc(C)nc2scc(-c3ccccc3)c12
27: CCOC(=O)c1c(NC(=O)C2c3ccccc3Oc3ccccc32)sc(C(C)=O)c1C
28: O=C(O)C/C(=C\c1ccc(Cl)cc1)c1nc2ccccc2o1
29: Cc1cc(C)cc(OCC(=O)Nc2ccncc2)c1
30: COc1ccccc1CNS(=O)(=O)c1cc(Br)cc2c1N(C(=O)C1CC1)CC2
31: CCOc1ccc(CCNC(=O)C(C)n2nc(C)c3c(C)n(-c4ccccc4)nc3c2=O)cc1 (configuration not stated)
32: COC(=O)CNC(=O)c1cc(-c2ccncc2)nc2c(C)c(Cl)ccc12

| compound no. | 25 | 26 | 27 | 28 | 29 | 30 | 31 | 32 |
| --- | --- | --- | --- | --- | --- | --- | --- | --- |
| Vaccinia Venus | 25.4%[7.34 µM] | -17.3% | -12.0% | 8.6% | -4.9% | -5.2% | -16.0% | -10.2% |
| VACV mCherry inh | 18.7%[7.34 µM] | -12.3% | -24.3% | -6.8% | -14.6% | -3.0% | -11.5% | -5.6% |

33: C[C@@H]1CN([C@H](C)CO)C(=O)CCCn2nncc2CO[C@H]1CN(C)S(=O)(=O)c1ccc(Oc2ccccc2)cc1
34: Cc1ccc2nc(-c3ccccc3C)c(CN(CC3CCCO3)C(=O)c3cccs3)cc2c1 (configuration not stated)
35: O=C(NCCCN1CCCC1=O)C(=O)NCC1OCCCN1S(=O)(=O)c1cc(F)ccc1F (configuration not stated)
36: CCOc1ccc(NC(=O)Cn2ncc3c2-c2cc(C)ccc2OC3)cc1
37: CC(C)N1C(=O)C(=O)N(CC(=O)N2c3ccccc3CC2C)C1=O (configuration not stated)
38: Cc1ccc(C(=O)CSc2nc3ccccc3c(=O)n2-c2ccccc2)s1
39: Cc1ccc2nc(SCC(=O)c3ccc(Cl)cc3)nc(=O)n2c1
40: CC(=O)N1N=C(c2ccc(C)cc2)CC1c1ccco1 (configuration not stated)

| compound no. | 33 | 34 | 35 | 36 | 37 | 38 | 39 | 40 |
| --- | --- | --- | --- | --- | --- | --- | --- | --- |
| Vaccinia Venus | -25.4% | -9.3% | -13.7% | -0.6% | -11.3% | 2.6% | -4.8% | -12.8% |
| VACV mCherry inh | -24.6% | -3.4% | -12.5% | -6.2% | i | -5.7% | i | -14.6% |

Reformatted: 2 of the compounds above.
(4) O=C1C=CC(=O)C(CNc2ccc(C(=O)OCc3ccccc3)cc2)=C1
  Vaccinia Venus: ?	VACV mCherry inh: ?

(5) CCN(CC)Cc1c(C(=O)N/N=C/c2c(Cl)cccc2Cl)nnn1-c1nonc1N
  Vaccinia Venus: -3.4%	VACV mCherry inh: i

Continuation:
41: O=C(c1cc(C2CC2)nn1-c1ccccc1)N1CCN(c2ccccn2)CC1
42: COc1ccc(C(=O)N2CCN(c3nc4cc(C)ccc4cc3C#N)CC2)c(OC)c1
43: CCC(C)NC(=O)c1[nH]c(C)c(C(=O)OC)c1C (configuration not stated)
44: CCOC(=O)c1ccc(-c2ccc(-c3cc(=O)oc4cc(OC)c(OC)c(OC)c34)cc2)cc1
45: CCc1cccc(NC(=O)CN(C)S(=O)(=O)c2ccc3c(c2)CCCN3C(C)=O)c1
46: C[C@@H]1CN([C@H](C)CO)C(=O)CCCn2cc(nn2)CO[C@H]1CN(C)C(=O)Nc1ccc2c(c1)OCCO2
47: COc1ccc(-n2c(=O)c3c4c(sc3n(Cc3ccc(C)cc3C)c2=O)CCC4)c(OC)c1
48: CC(Oc1ccc(C#N)cc1)C(=O)N1CC=C(c2ccccc2)CC1 (configuration not stated)

| compound no. | 41 | 42 | 43 | 44 | 45 | 46 | 47 | 48 |
| --- | --- | --- | --- | --- | --- | --- | --- | --- |
| Vaccinia Venus | -24.1% | -24.1% | -18.6% | -4.0% | -14.8% | -15.6% | -10.9% | -20.2% |
| VACV mCherry inh | -18.3% | ? | -23.6% | 10.2% | -19.2% | -10.3% | -13.0% | -19.3% |

49: O=C(CN1CCOCC1)N/N=C/c1cccc2ccccc12
50: O=C(Nc1ccccc1C(=O)Nc1cccnc1)c1ccccc1
51: COc1cc(CCC(=O)N2CCN(c3ncccn3)CC2)cc(OC)c1OC
52: Cc1ccc(C)c(COC(=O)CCN=C2NS(=O)(=O)c3ccccc32)c1
53: O=[N+]([O-])c1ccc2c(c1)nc1n2CCSC1
54: N#Cc1cc2c(nc1SCc1ccccc1)CCCC2
55: C=CCn1c(CCNC(=O)c2cccs2)n[nH]c1=S
56: COc1cccc(-c2nnc(SCC3CNC(=O)O3)n2-c2ccc(Cl)cc2)c1 (configuration not stated)

| compound no. | 49 | 50 | 51 | 52 | 53 | 54 | 55 | 56 |
| --- | --- | --- | --- | --- | --- | --- | --- | --- |
| Vaccinia Venus | -8.7% | -11.8% | -16.4% | -9.0% | -4.0% | -15.2% | -6.3% | -15.0% |
| VACV mCherry inh | -3.1% | -12.6% | i | i | -1.1% | -14.7% | -1.4% | -14.2% |

57: N#Cc1ccccc1NC(=O)C(=O)NCCc1csc(-c2ccc(F)cc2)n1
58: COc1ccccc1CCC(=O)Nc1ccc2c(c1)CN(Cc1ccc(C)o1)CC2
59: Cc1cc(C)nc(SCC(=O)N/N=C/c2cccn2-c2ccc(O)cc2)n1
60: c1ccc(NN=C2c3ccccc3-c3ccccc32)cc1
61: O=C1CNC(=S)N1C(CO)c1ccccc1 (configuration not stated)
62: CCOc1ccc(NC(=O)N2CCN(c3ccc(Cl)c(Cl)c3)CC2)cc1
63: O=C(COc1ccc2ccccc2c1)Nc1ccc(O)c(-c2nc3ccccc3o2)c1
64: COc1ccc(C(=O)c2coc3ccc(O)c(CN4CCCCC4)c23)cc1

| compound no. | 57 | 58 | 59 | 60 | 61 | 62 | 63 | 64 |
| --- | --- | --- | --- | --- | --- | --- | --- | --- |
| Vaccinia Venus | -22.3% | -3.2% | -9.6% | 14.2% | 8.2% | -15.5% | -17.6% | -15.7% |
| VACV mCherry inh | -13.9% | i | · | ? | i | -16.5% | -0.2% | i |

65: CC(=O)Nc1ccc(S(=O)(=O)NC2(C(F)(F)F)NC(=O)N(Cc3ccccc3)C2=O)cc1 (configuration not stated)
66: O=C(Nc1ccc(C(=O)OCc2cc(=O)n3c4c(sc3n2)CCCC4)cc1)c1ccc(Cl)cc1
67: OCCC1CN(Cc2cccc3nccnc23)CCN1Cc1ccc(F)c(F)c1 (configuration not stated)
68: COCCNC(=O)CN1C(=O)CCn2nc(-c3cn(C)c4ccccc34)cc21
69: CCOc1ccc(OCC(=O)Nc2c(C(=O)Nc3ccc(C)cc3)oc3ccccc23)cc1
70: CCOc1ccc(CNS(=O)(=O)c2ccc(-c3cc(C(F)(F)F)on3)s2)cc1
71: COc1ccc(Cl)cc1C(=O)Nc1nnc2n1CCS2
72: COc1ccc(/C=N/NC(=O)COc2cccc3ccccc23)c(C(=O)O)c1OC

| compound no. | 65 | 66 | 67 | 68 | 69 | 70 | 71 | 72 |
| --- | --- | --- | --- | --- | --- | --- | --- | --- |
| Vaccinia Venus | -3.6% | -8.4% | 2.0% | -0.6% | -11.6% | -15.8% | -6.0% | 8.4% |
| VACV mCherry inh | -6.1% | -12.0% | -11.8% | i | -8.9% | -4.9% | 1.4% | -12.5% |

73: CC1=C(C(=O)N2CCCCCC2)CC(CC(=O)NCC2CCCCC2)C(=O)N1CCCN1CCCC1=O (configuration not stated)
74: CCOC(=O)N/N=C\c1ccc(OC(=O)c2ccco2)cc1
75: Cn1c(=O)c2c(ncn2Cc2cccc(Cl)c2)n(C)c1=O
76: COc1ccccc1CN1CCOc2ccc(CN3CCC(Oc4cccnc4)CC3)cc2C1
77: CCC(CC)c1nc(C#N)c(NCc2ccccc2)o1
78: OCCC1CN(Cc2cccn2-c2ccccn2)CCN1C1CCCCC1 (configuration not stated)
79: Cc1nnc(SCC(=O)c2ccccc2)n1Cc1ccccc1
80: CC1CCCC(NC(=O)c2ccc3c(c2)N(Cc2ccccc2)C(=O)CS3=O)C1C (configuration not stated)

| compound no. | 73 | 74 | 75 | 76 | 77 | 78 | 79 | 80 |
| --- | --- | --- | --- | --- | --- | --- | --- | --- |
| Vaccinia Venus | -0.4% | -8.4% | -15.6% | 1.9% | -21.7% | -3.5% | -4.4% | -4.1% |
| VACV mCherry inh | -15.5% | i | -12.6% | -19.6% | -31.8% | i | -11.5% | -8.7% |

81: C/C(=N\NC(=O)CN1CCN(S(=O)(=O)c2ccc(C)cc2)CC1)c1cccnc1
82: Cc1ccc(N(CC(=O)N2CCN(c3cccc(Cl)c3)CC2)S(=O)(=O)c2c(C)noc2C)cc1
83: COc1ccc(N2CCc3c(C)nc4c(OC)cccc4c32)cc1
84: Cc1cc(C)cc(CN2CCOc3ccc(CN4CCC(O)(c5cccnc5)CC4)cc3C2)c1
85: COc1cccc(N2CC(C(=O)Nc3nnc(SCC(=O)N4CCCC4)s3)CC2=O)c1 (configuration not stated)
86: Cc1ccc(Oc2nc(-c3ccccc3)ncc2S(=O)(=O)c2ccc(C)cc2)cc1
87: COC(=O)c1nn(-c2cccc(Cl)c2)ccc1=O
88: CCCc1cc(C(=O)Nc2ccc(Cl)cn2)cs1

| compound no. | 81 | 82 | 83 | 84 | 85 | 86 | 87 | 88 |
| --- | --- | --- | --- | --- | --- | --- | --- | --- |
| Vaccinia Venus | ? | -15.2% | -12.4% | -8.7% | 2.5% | -4.4% | -11.0% | ? |
| VACV mCherry inh | ? | -16.9% | -14.1% | -1.5% | -12.6% | · | -17.3% | i |

Screens from PubChem BioAssay.
